FH mod: Identification of activators of human fumarate hydratase by quantitative high-throughput screening; FH coupled MDH/diaphorase resazurin fluorescence, 15 min; Potency, µM (titrated, usually from 79.9 µM), for the others: top-dose activity change, negative = inhibition, actives largely listed as inhibitors; 54,000 compounds, 0.22% hits; AID 1347055, 2019; note: potency is the fitted concentration of half-maximal effect; % is set by controls: 0 for no effect and ±100 for the full control effect; the screen sought activators but most active calls are inhibition curves; nearly all actives have a fitted effect of over 45% in size
p53null 39C tox: selectivity test: cytotoxicity in p53 null cells, nonpermissive temperature; H1299 p53-null (neo) cells, 39C, ATPlite viability, 24 h; Potency, µM (top dose mostly 46.1 µM), without a hit: top-dose activity, negative = cell killing, most hits filed as cytotoxic; 55,000 compounds, 0.97% hits;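 note: potency is the fitted concentration of half-maximal effect; 0% = DMSO only and -100% = full killing by 100 µM tamoxifen; nearly all actives have a fitted effect of over 50% in size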
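Following overnight plating at 37C (600 cells/well), H1299-neo or H1299-p53A138V cells are dosed up to 46 uM. Incubation lasts 24 hr at 39C before ATP detection.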
TSG101-PTAP inh: blocks PTAP binding to human TSG101, validation | Q99816 | Fluorescence polarization, FITC-PTAP peptide/Tsg101, 20 min | Potency, µM (series often up to 115 µM), for inactives: top-dose activity change, negative = inhibition, usual class: inhibitors | 44,000 tested, under 10 active | AID 1347069; note: potency is the fitted concentration of half-maximal effect; 0% is about no effect
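Compounds pinned into 10 uM Tsg101 binding domain, then 50 nM FITC-PTAP peptide added in pH 7.5 HEPES buffer; FP read after 20 min, room temperature. Total S+P intensity flags fluorescent compounds; active cut-off <25 µM, efficacy <60%.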
B2AR arrestin ag: ADRB2 beta-arrestin recruitment | Potency, µM (titrated, usually from 46.1 µM), without a hit: at the highest dose activation, actives largely listed as activators | HTLA Tango cells, beta-arrestin recruitment, luciferase luminescence, 18 h | P07550 | 44,000 tested, under 10 active;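 note: potency is the fitted concentration of half-maximal effect; 0% = DMSO and full agonism = EC100 isoproterenol or metaproterenol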
Target sequence (P07550 whole entry, looked up): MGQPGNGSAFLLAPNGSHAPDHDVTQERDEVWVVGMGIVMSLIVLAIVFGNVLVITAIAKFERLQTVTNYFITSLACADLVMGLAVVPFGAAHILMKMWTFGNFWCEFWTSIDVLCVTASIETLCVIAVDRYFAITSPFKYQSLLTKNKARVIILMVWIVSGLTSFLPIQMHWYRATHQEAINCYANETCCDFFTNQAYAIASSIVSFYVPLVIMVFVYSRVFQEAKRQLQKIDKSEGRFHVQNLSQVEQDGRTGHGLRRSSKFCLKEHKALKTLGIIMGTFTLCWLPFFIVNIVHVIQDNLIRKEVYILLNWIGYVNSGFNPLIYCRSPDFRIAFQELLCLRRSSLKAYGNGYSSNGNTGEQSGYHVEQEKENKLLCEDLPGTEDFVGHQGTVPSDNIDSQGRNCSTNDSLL
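First, Tango cells carrying beta2-AR and beta-arrestin fusions received compound up to 46 microM. After 18 hr at 37 degrees C, luciferase substrate was added for 15 minutes, then luminescence gave %Activity for curve fitting.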
p53null 32C kill: p53 null cell cytotoxicity, permissive temperature; AID 903; 55,000 compounds, 0.62% hits; Potency, µM (top dose mostly 46.1 µM), inactives show at the highest dose activity change, negative = cytotoxicity, usual class: cytotoxic; H1299-neo p53 null cells, ATP luminescence, 24 h, 32C;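 note: potency is the fitted concentration of half-maximal effect; 0% = DMSO only and -100% = full killing by 100 µM tamoxifen; nearly all actives have a fitted effect of over 55% in size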
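H1299-neo, 600 cells/well; overnight 37C; cpd up to 46 uM, 24 h at 32C; ATPlite luminescence after 20 min RT; normalized to DMSO (0%) and tamoxifen 100 uM (100% kill); Hill-fit AC50.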
GALK inhibitor: inhibits human galactokinase | P51570 | recombinant GALK, Kinase-Glo ATP luminescence, 1 h | Potency, µM (series often up to 57.5 µM), for the others: at the top dose activity, negative = inhibition, hits mostly inhibitors | 44,000 tested, under 10 active;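 note: plate controls were full GALK reaction for no effect and reaction lacking GALK for full effect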
Target sequence (P51570 whole entry, looked up): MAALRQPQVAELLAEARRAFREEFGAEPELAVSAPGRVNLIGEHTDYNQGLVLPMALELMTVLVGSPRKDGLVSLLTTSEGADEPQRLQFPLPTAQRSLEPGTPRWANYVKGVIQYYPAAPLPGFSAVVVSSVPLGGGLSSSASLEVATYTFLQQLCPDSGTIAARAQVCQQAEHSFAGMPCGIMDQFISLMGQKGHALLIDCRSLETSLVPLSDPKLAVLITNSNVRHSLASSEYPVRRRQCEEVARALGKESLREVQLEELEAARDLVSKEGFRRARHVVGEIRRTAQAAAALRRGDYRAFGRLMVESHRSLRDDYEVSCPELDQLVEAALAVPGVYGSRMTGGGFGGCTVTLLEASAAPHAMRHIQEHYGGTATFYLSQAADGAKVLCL
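Compounds were pinned into ATP buffer, then GALK-galactose mix was added (final 5 nM enzyme, 35 uM ATP, 100 uM galactose, pH 8.0). After 1 h at room temperature, Kinase-Glo Plus was added and luminescence read.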
Starred values were filed as active, the others as inactive; u = inconclusive; x = no result given; [ ] = another dose, or the depositor's remark. Calls come from the whole dose curve; as a rule, active = well fitted curve in the direction sought with a large enough effect; inconclusive = small, poorly fitted or top-dose-only effect, or another doubt; inactive = no such curve, though single readings can be large; an effect the other way counts as inactive or inconclusive. An excerpt, so the mix of outcomes need not match the whole.

SMILES	FH mod	p53null 39C tox	TSG101-PTAP inh	B2AR arrestin ag	p53null 32C kill	GALK inhibitor
CCC(Sc1nc2n[nH]c(C)c2c(=N)n1-c1ccccc1Cl)C(=O)N(CC)CC (stereo not drawn)	-12%	22%	-1%	7%	5%	3%
O=c1oc2ccc(Br)cc2cc1-c1csc(-c2ccccc2)n1	12%	0%	2%	-2%	0%	1%
CCC(=C(CC)c1ccc(O)cc1)c1ccc(O)cc1	-8%[53.3 µM]	x	x	x	x	x
Cc1ccc(-c2nc(C)c(CCNS(=O)(=O)c3ccccc3F)s2)cc1	u	39%[activator]	1%	-1%	14%	3%
Cc1cc(NC(=O)c2cnc3c(-c4ccccc4)c(C)nn3c2C)ccc1Br	-18%	-10%	-4%	0%	0%	-2%
Cc1ccc2nc(NCc3ccc(F)cc3)c3nncn3c2c1	2%	-10%	4%	0%	4%	4%
CCc1nn2c(-c3ccccc3OC)ccnc2c1-c1ccccc1	-21%	x	-9%	5%	x	-3%
CCc1ccccc1N(CC)C(=O)c1c(C)oc2ncnc(N3CCOCC3)c12	3%	-5%	-1%	0%	4%	-4%
CCc1ccccc1NC(=O)CSc1ncc(S(=O)(=O)c2ccc(C(C)C)cc2)c(N)n1	-19%	12%	-3%	5%	25%	-2%
CCCCc1ccc(NC(=O)c2cc3c(=O)n4ccccc4nc3n2C)cc1	-10%	-19%	-6%	2%	-8%	3%
COC(=O)c1ccccc1O[C@@H]1O[C@H](CO)[C@@H](O)[C@H](O)[C@H]1O[C@@H]1O[C@@H](C)[C@H](O)[C@@H](O)[C@H]1O	4%[53.3 µM]	x	x	x	x	x
Cc1csc2nc(COC(=O)CNC(=O)c3ccccc3Cl)cc(=O)n12	-9%	-22%	-3%	1%	-2%	-2%
CCOc1ccccc1NC(=O)CSc1ncc(S(=O)(=O)c2ccc(C)c(C)c2)c(N)n1	-26%	-20%	0%	-1%	4%	2%
CC(C)C1NC(=O)C(CC2(O)c3ccccc3N3C(=O)C(Cc4ccccc4)NC32)NC1=O (stereo not drawn)	2%[53.3 µM]	x	x	x	x	x
Cc1ccc(NS(=O)(=O)c2ccc3c(c2)N(C)C(=O)CC(=O)N3C)cc1Cl	3%	5%	1%	0%	4%	-1%
COCc1nc2ccccc2n1Cc1ccc(C(C)(C)C)cc1	-7%	15%	-8%	1%	-6%	0%
C/C=C/C=C/C1=C2C(=O)C3(C)C4C(C(=O)CC(O)/C=C/C)=C(O1)C1(C)C2C2(C)OC1(O)C4(C)OC23O (stereo not drawn)	-4%[53.3 µM]	x	x	x	x	x
CCc1ccc(N2C(=O)CS(=O)(=O)C23C(=O)N(Cc2ccccc2F)c2ccccc23)cc1 (stereo not drawn)	-16%	-17%	0%	0%	12%	0%
CCOC(=O)c1c(C)oc2nc(C)nc(NCCc3ccc(S(N)(=O)=O)cc3)c12	-9%	6%	-8%	0%	-10%	1%
CCCN(Cc1cc2cc(C)ccc2[nH]c1=O)C(=O)c1cccc(Cl)c1	-8%	-11%	-7%	0%	-4%	0%

Structures shown so far that contain a furan ring, fused or not (2):
SMILES	FH mod	p53null 39C tox	TSG101-PTAP inh	B2AR arrestin ag	p53null 32C kill	GALK inhibitor
CCc1ccccc1N(CC)C(=O)c1c(C)oc2ncnc(N3CCOCC3)c12	3%	-5%	-1%	0%	4%	-4%
CCOC(=O)c1c(C)oc2nc(C)nc(NCCc3ccc(S(N)(=O)=O)cc3)c12	-9%	6%	-8%	0%	-10%	1%

Four structures from above, sorted by formula weight, largest number first.
SMILES	FH mod	p53null 39C tox	TSG101-PTAP inh	B2AR arrestin ag	p53null 32C kill	GALK inhibitor
C/C=C/C=C/C1=C2C(=O)C3(C)C4C(C(=O)CC(O)/C=C/C)=C(O1)C1(C)C2C2(C)OC1(O)C4(C)OC23O (stereo not drawn)	-4%[53.3 µM]	x	x	x	x	x
Cc1csc2nc(COC(=O)CNC(=O)c3ccccc3Cl)cc(=O)n12	-9%	-22%	-3%	1%	-2%	-2%
COCc1nc2ccccc2n1Cc1ccc(C(C)(C)C)cc1	-7%	15%	-8%	1%	-6%	0%
Cc1ccc2nc(NCc3ccc(F)cc3)c3nncn3c2c1	2%	-10%	4%	0%	4%	4%

Following part:
SMILES	FH mod	p53null 39C tox	TSG101-PTAP inh	B2AR arrestin ag	p53null 32C kill	GALK inhibitor
COc1cc2c(C(=O)N(C)c3cc(Cl)ccc3OC)cn(CC(C)C)c(=O)c2cc1OC	5%	9%	-11%	2%	7%	-2%
COc1cc(OC)cc(C(=O)Nc2ccc3c(c2)CCCN3C(=O)c2cccs2)c1	-20%	5%	-1%	0%	-12%	2%
COc1ccccc1N1C(=O)N(CC(=O)C(C)(C)C)c2ccccc2S1(=O)=O	3%	6%	-2%	-3%	-4%	-2%
COc1cccc(N2CCN(Cc3cc(=O)oc4cc(C)ccc34)CC2)c1	-23%	-4%	3%	0%	-4%	8%
CCOC(=O)c1ccc2c(c1)N(CC(=O)Nc1cc(F)ccc1F)C(=O)c1ccccc1S2	-3%	-7%	-5%	0%	-8%	-1%
CCCCN1C(=O)c2[nH]nc(-c3ccccc3O)c2C1c1cccc(OCc2ccccc2)c1 (stereo not drawn)	-21%	u	-12%	1%	42%[activator]	-3%
COc1ccc(NC(=O)c2cc(S(=O)(=O)N3CCCC3)ccc2OC)cc1	3%	u	-4%	1%	-1%	2%
COc1cccc(-c2cc(C(F)(F)F)nc(NCCc3ccc(OC)c(OC)c3)n2)c1	u	30%	-3%	1%	15%	2%
Cc1ccc(Cn2c(C)c(CNCc3ccccc3F)c(C(=O)O)c2C)cc1	-5%	-16%	0%	-3%	-6%	7%
COc1ccc(OC)c(S(=O)(=O)NCCc2sc(C)nc2C)c1	-3%	10%	-2%	0%	-1%	2%
Cc1ccccc1C(=O)NNc1ncnc2c1cnn2-c1cccc(Cl)c1	14%	-13%	-2%	-1%	-7%	3%
Clc1cccc(N2CCN(c3nc4ccccc4n4nnnc34)CC2)c1	1%	7%	-11%	-3%	-8%	8%
CC1=C(C(=O)Nc2cccnc2)C(c2cccc(Br)c2)n2nc(SCc3ccccc3)nc2N1 (stereo not drawn)	-1%	1%	-2%	1%	3%	0%
C/C=C/C=C/C=C/C(=O)O[C@@H]1[C@@H](OC)C2=C(C(=O)N(C(C)C(=O)O)C2)[C@@]2(C)CCCC(C)(C)[C@H]12 (stereo partly drawn)	1%[53.3 µM]	x	x	x	x	x
CCC(Cn1nnc2ccccc2c1=O)NC(=O)Nc1cc(Cl)ccc1OC (stereo not drawn)	-6%	-10%	4%	-1%	-1%	2%
COc1ccccc1-c1cc2nc(C)c(CCC(=O)Nc3ccc(Br)c(C)c3)c(C)n2n1	-15%	-8%	-1%	-2%	1%	0%
COc1ccc(C2c3c(-c4ccccc4O)n[nH]c3C(=O)N2CCc2ccccc2)cc1 (stereo not drawn)	-25%	u	-14%	u	44%[activator]	0%
CCOc1ccc(NC(=O)C(CC)n2c(=O)c(-c3ccccc3NC(C)=O)nc3ccccc32)cc1 (stereo not drawn)	u	9%	-3%	-3%	-2%	-11%
Cc1cc(Cl)ccc1NC(=O)CN(c1ccccc1Br)S(C)(=O)=O	-1%	-17%	-5%	0%	-1%	0%
COc1ccc(-c2cc(C(C)=O)c(C)n2CCC(=O)NC2CCCCC2)cc1	8%	-9%	1%	-2%	9%	1%
CCCCCSc1nnc(-c2ccc(Br)cc2)o1	2%	33%[activator]	2%	1%	5%	-2%
Cc1sc(C)c(C(=O)NC2(c3ccc(C(=O)O)cc3)CC2)c1Cc1ccc(C(F)(F)F)cc1	3%	x	x	x	x	x
Cc1nc2nc(SCC(=O)NCCc3ccc(Cl)cc3)nn2c(C)c1Cc1c(F)cccc1Cl	u	3%	1%	-1%	36%[activator]	-3%
Cc1cc(C)c(NC(=O)c2cc3sc(Cl)cc3n2C)c(C)c1	-1%	-29%	3%	1%	-7%	2%
Cc1ccc(N2C(=O)CS(=O)(=O)C23C(=O)N(Cc2ccccc2F)c2ccccc23)cc1Cl (stereo not drawn)	-10%	u	9%	-2%	16%	5%
CCOC(=O)c1noc2ncnc(N3CCN(c4cccc(C(F)(F)F)c4)CC3)c12	-38%	16%	2%	-1%	8%	1%
CCc1ccc(C(=O)c2cn(CC(=O)Nc3ccc4c(c3)OCO4)c3ccc(OC)cc3c2=O)cc1	-9%	-13%	6%	1%	9%	-11%
COc1ccccc1CNc1nccn(-c2ccccc2)c1=O	1%	16%	-8%	-2%	7%	-1%
CC(C)C(=O)OCc1cccc(OC(=O)[C@@H]2N3C(=O)[C@@H](NC(=O)Cc4ccccc4)[C@H]3SC2(C)C)c1	-4%[53.3 µM]	x	x	x	x	x
CCN(CC)C(=O)c1sc2c(c1C)c(=O)n(CCc1ccccc1)c(=O)n2Cc1cc(C)ccc1C	16%	4%	-4%	-3%	2%	1%
CCOc1ccc(/C=C/c2nc(C#N)c(N3CCN(c4ccccc4)CC3)o2)cc1	-5%	0%	-6%	-1%	6%	0%
CCCCCNC(=O)c1cc2c(=O)n3ccccc3nc2n1C	-5%	-14%	1%	1%	-6%	1%
Cn1nc(C(C)(C)C)cc1C(=O)NC(Cc1cccc(Cl)c1)C(=O)NCC#N (stereo not drawn)	1%	x	x	x	x	x
COc1ccc(CCNC(=O)CSc2nc3nc(C)c(Cc4ccc(C)cc4)c(C)n3n2)cc1OC	-22%	25%	-4%	u	-6%	-2%
COc1cccc(CNC(=O)c2cnc3c(-c4ccc(F)cc4)c(C)nn3c2C)c1	0%	-11%	2%	0%	-4%	0%
Cc1ccccc1-c1nc(NC(=O)CSc2ncnc3sc4c(c23)CCCC4)ns1	-15%	8%	-1%	-1%	-9%	4%
Cc1ccc(CNc2ncnc3ccc(-c4ccc(CO)o4)cc23)o1	-7%	x	x	x	x	x
Cc1ccc(OC(C)C(=O)NCC2(N3CCOCC3)CCCCC2)cc1C (stereo not drawn)	-35%	-9%	-3%	-4%	-7%	3%
